Assay outcomes (PubChem)
Bead autofluor – compound fluorescence in toxin protease inhibitor counterscreen | compound autofluorescence counterscreen, microsphere flow cytometry; stronger effect = higher value | fluorescence intensity (test concentration not listed) | 360,000 compounds, 3.1% hits | AID 624483;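 active = at least 3 SD above the mean of all compounds, about 16000 in these data; inconclusive = too few beads counted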;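 also: 100 nL of 1 mM stock went into each well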
Sa RN4220 lethal – kills Staphylococcus aureus RN4220; AID 1259311; 330,000 compounds, 0.33% hits; inhibition, % (no concentration beside the values); S. aureus RN4220 growth, OD600, 16 h;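 active = z-score of -3 or lower and OD600 up to 0.18 on both plates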;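 also: plate controls were untreated cells for no effect and reference antibiotic for full effect; stock transfer was 100 nL into about 80 µL; one replicate is shown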
BJeLR viability – BJeLR cell viability loss; inhibition, % (no concentration beside the values); BJeLR (HRASV12) viability, CellTiter-Glo ATP luminescence, 48 h; reference of the scale not given here; AID 1554; 300,000 compounds, 0.17% hits;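 active = replicate mean above 50%; inconclusive = above 50% but judged a plate artefact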;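 also: 50 nL library stock added to about 25 µL; numbers are from one replicate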
Mtb hypoxia rep – inhibitors of hypoxia-regulated fluorescent reporter in Mycobacterium tuberculosis | fluorescence inhibition, % (no concentration beside the values) | 300,000 compounds, 0.1% hits | M. tuberculosis hypoxia-regulated fluorescent reporter, fluorescence | AID 1159583;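 active = 35 to 45% if threefold the growth effect, above 45% if 1.5-fold the growth effect; inactive = the rest, general growth blockers included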;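 also: wells of about 50 µL received 100 nL stock; 0% = vehicle wells and 100% = reference inhibitor wells; whole bacteria with a GFP reporter of the hypoxia response; strong numbers were not always called active; many hits fall short of the cut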
Sa ugtP lethal – growth inhibition of S. aureus ugtP deletion strain | S. aureus RN4220 ugtP deletion, OD600 growth, 16 h; some inactives read as strong as hits | growth inhibition, % (no concentration beside the values) | 330,000 compounds, 0.54% hits;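 active = z-score under -3 and OD600 up to 0.15 on both plates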;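 also: plate controls were untreated wells for no effect and antibiotic for full effect; wells of about 80 µL received 100 nL stock; the first replicate is given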
PrP 5UTR inh – suppresses PrP 5' UTR mRNA reporter expression. AID 488862. cell-based PrP 5' UTR mRNA reporter, plate reader. inhibition, % (no concentration beside the values). 340,000 compounds, 0.35% hits;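 active = every replicate at 50% or more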;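 also: 0 = median of the neutral control wells; tested in H4 reporter cells; numbers are from one replicate; inactives centre near -14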
Mtb hypoxia rep growth – second read-out of Mtb hypoxia rep, no call of its own (marks repeat the call); growth inhibition, %; measured here: M. tuberculosis growth (absorbance);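 0% = vehicle and 100% = reference antibiotic; read after six days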
Numbers without * were called inactive; ? = inconclusive; / = no result given.

SMILES | Bead autofluor | Sa RN4220 lethal | BJeLR viability | Mtb hypoxia rep | Mtb hypoxia rep growth | Sa ugtP lethal | PrP 5UTR inh
COc1ccccc1N1CCN(S(=O)(=O)CCNC(=O)c2cc(OC)c(OC)c(OC)c2)CC1 | 4578 | -0.9 | -3.4 | 3.7 | -1.6 | 5.8 | -3.0
O=C(C[C@H]1C(=O)N(c2ccc(F)c(F)c2)C[C@@H]1Cc1ccccc1)Nc1ccccc1 | 3637 | / | 0.5 | / | / | / | -18.7
CC(=O)Nc1ccc2nc(NC(=O)c3ccc([N+](=O)[O-])o3)sc2c1 | 3939 | 17.9 | 4.5 | 13.8 | 21.9 | 98.2* | -27.2
O=C(/C=C/c1ccc(F)cc1)N1CCCc2ccccc21 | 5260 | 4.7 | 4.7 | 6.7 | 6.9 | 6.5 | -36.0
COc1ccc(C(C)=NNc2nncc3ccccc23)cc1 | / | 2.9 | / | 12.4 | 8.5 | 4.6 | /
Cc1ccc(S(=O)(=O)N2CCOCC2)cc1NC(=O)CSc1ccc(Cl)cc1 | ? | 3.4 | 2.2 | 3.2 | 1.0 | 4.0 | -0.5
CC(C)(C)C(=O)Nc1ccnn1C1CCN(C(=O)c2cccc(Cl)c2)CC1 | 5709 | 1.7 | -2.7 | -5.1 | -0.5 | -1.9 | -4.6
COc1cccc(OC)c1NC(=O)C1CCCN1C(=O)NCc1ccccc1 (centres undefined) | 3788 | 3.2 | -4.7 | 10.4 | 13.9 | -0.1 | -30.0
CCCCn1c(N)c(N(CC(C)C)C(=O)COC(=O)Cc2cccc(OC)c2)c(=O)[nH]c1=O | / | 0.9 | -4.1 | 8.1 | 2.9 | 2.8 | -3.6
CCN1CCN(C(=O)CN(c2ccc(F)c(Cl)c2)S(C)(=O)=O)CC1 | 5019 | 2.3 | -12.7 | 7.1 | 4.4 | 9.5 | -2.3
Nn1c(SCC(=O)Nc2ccc3c(c2)OCO3)nncc1=O | 5366 | 6.9 | 19.9 | -0.2 | -7.7 | 2.0 | -24.8
COc1ccc(-c2oc3ncnc(NCCN4CCOCC4)c3c2-c2ccc(OC)cc2)cc1 | 3804 | 2.7 | -11.3 | 1.4 | 6.8 | -3.6 | -1.1
COc1ccc(NC(=O)N(C)CC2Oc3c(NS(=O)(=O)c4ccc(OC)cc4)cccc3C(=O)N(C(C)CO)CC2C)cc1 (centres undefined) | / | 1.1 | / | 18.4 | 7.2 | -2.0 | /
CC(=O)c1cccc(OCc2cc(C(=O)N3C[C@@H](C)O[C@@H](C)C3)no2)c1 | 5153 | 3.3 | 4.9 | 1.1 | 2.4 | 3.6 | -44.0
COC(=O)[C@]1(C)N[C@H](CN(C)C(=O)c2ccc(C)cc2)[C@@H]2C(=O)N(C)C(=O)[C@@H]21 | 2971 | 0.5 | / | -11.1 | -16.0 | 0.0 | -3.0
CCCCCC(=O)N1CCCC1 | 3733 | 3.9 | -0.9 | / | / | 6.3 | -20.3
COc1cccc(CC(NC(C)=O)C(=O)NC2CCN(C(=O)Nc3ccc(C)cc3)CC2)c1 (centres undefined) | 2932 | 5.0 | -10.7 | 15.0 | 4.8 | 3.4 | -13.9
CC(=O)C(=NNc1ccc(Br)cc1)N1CCCc2ccccc21 | / | -6.8 | / | 15.5 | 8.0 | 22.2 | /
O=C(CCc1ccccc1)Nc1nnc(-c2ccc3c(c2)OCCO3)o1 | 4213 | 4.0 | -4.0 | 0.6 | -3.5 | -1.7 | -22.1
CCN(c1ccccc1)S(=O)(=O)c1ccc(C(=O)NCC(c2cccs2)N(C)C)cc1 (centres undefined) | 3728 | 10.9 | 8.2 | -5.7 | 5.9 | 9.8 | -19.9
CN1CCN(c2ccc(S(=O)(=O)N3CCCCC3)cc2NC(=O)c2cccc([N+](=O)[O-])c2)CC1 | 4482 | 3.2 | 0.3 | 3.7 | 12.9 | 6.6 | -2.3
O=C(COC(=O)Cc1ccccc1F)Nc1ccccc1[N+](=O)[O-] | 7463 | 5.8 | / | 3.5 | 6.2 | 5.1 | 0.6
Cc1cccc(OCCCC(=O)NNC(=O)c2ccncc2)c1 | 4348 | 2.7 | / | / | / | 4.9 | -14.4
Cc1ccc(S(=O)(=O)N2CC(C)N(C(=O)N3CCOCC3)C2)cc1 (centres undefined) | 3738 | 2.0 | -1.4 | -7.0 | -8.3 | 13.6 | -22.8
Cc1cccc(C)c1OCC(=O)Nn1c(=O)[nH]c2ccccc2c1=O | 2121 | 4.0 | -0.9 | -6.8 | -1.5 | 7.4 | -19.1

One compound at a time (already shown):
`CC(C)(C)C(=O)Nc1ccnn1C1CCN(C(=O)c2cccc(Cl)c2)CC1` as listed: Bead autofluor: 5709; Sa RN4220 lethal: 1.7; BJeLR viability: -2.7; Mtb hypoxia rep: -5.1; Mtb hypoxia rep growth: -0.5; Sa ugtP lethal: -1.9; PrP 5UTR inh: -4.6
`COC(=O)[C@]1(C)N[C@H](CN(C)C(=O)c2ccc(C)cc2)[C@@H]2C(=O)N(C)C(=O)[C@@H]21` as listed: Bead autofluor: 2971; Sa RN4220 lethal: 0.5; BJeLR viability: /; Mtb hypoxia rep: -11.1; Mtb hypoxia rep growth: -16.0; Sa ugtP lethal: 0.0; PrP 5UTR inh: -3.0

Going on with the list.
SMILES | Bead autofluor | Sa RN4220 lethal | BJeLR viability | Mtb hypoxia rep | Mtb hypoxia rep growth | Sa ugtP lethal | PrP 5UTR inh
CC1OC(OC2CC[C@@]3(C)C(CC[C@]4(C)C3C=C[C@]35OC[C@@]6(CCC(C)(C)CC63)C(O)C[C@]54C)[C@]2(C)CO)C(O)C(OC2OC(CO)C(O)C(O)C2O)C1O (some centres undefined) | / | 5.5 | / | 12.5 | 4.9 | 1.4 | /
O=C(COc1coc(CN2CCc3ccccc32)cc1=O)NCCc1ccccc1 | / | 2.0 | 3.7 | -4.2 | 0.5 | 4.3 | -10.3
O=C(NC1CCCCC1)C12CC3CC(CC(Cl)(C3)C1)C2 | 2185 | 7.0 | -0.8 | 14.6 | 1.9 | -0.1 | -6.5
NC(=O)c1nc[nH]c1C(=O)Nc1cccc(NC(=O)c2cccc(C(F)(F)F)c2)c1 | 3432 | 3.5 | / | 1.8 | 4.5 | -5.8 | -8.2
Cc1noc(C)c1C(=O)NCCc1ccccc1 | 3092 | 5.3 | 5.6 | / | / | 6.8 | -6.1
Cc1ccc(S(=O)(=O)CC2CSc3nc(N)cc(=O)n32)cc1 (centres undefined) | 21227* | 3.1 | 12.9 | 7.8 | 8.6 | -1.3 | -31.5
Clc1cccc(/C=N/N2CCN(Cc3ccccc3)CC2)c1 | 2904 | / | -8.3 | / | / | / | -14.1
O=C(OCC(=O)N1CCC(Cc2ccccc2)CC1)c1ccccc1 | 4133 | 4.1 | 0.4 | 12.8 | 8.5 | 15.2 | -49.6
O=C(NC(=S)Nc1ccc(Br)cn1)c1cccs1 | 2459 | -0.8 | -4.6 | 10.7 | 4.6 | -1.1 | -84.3
CCc1ccc2c(c1)cc(CN(C(=S)Nc1ccccc1)C1CC1)c1nnnn12 | 6102 | 5.8 | 7.7 | 3.9 | 9.3 | -3.1 | 3.3

Looked up by structure from above:
SMILES | Bead autofluor | Sa RN4220 lethal | BJeLR viability | Mtb hypoxia rep | Mtb hypoxia rep growth | Sa ugtP lethal | PrP 5UTR inh
Cc1noc(C)c1C(=O)NCCc1ccccc1 | 3092 | 5.3 | 5.6 | / | / | 6.8 | -6.1
CCc1ccc2c(c1)cc(CN(C(=S)Nc1ccccc1)C1CC1)c1nnnn12 | 6102 | 5.8 | 7.7 | 3.9 | 9.3 | -3.1 | 3.3
O=C(NC(=S)Nc1ccc(Br)cn1)c1cccs1 | 2459 | -0.8 | -4.6 | 10.7 | 4.6 | -1.1 | -84.3

Entries above that contain a furan ring, fused or not (2):
SMILES | Bead autofluor | Sa RN4220 lethal | BJeLR viability | Mtb hypoxia rep | Mtb hypoxia rep growth | Sa ugtP lethal | PrP 5UTR inh
CC(=O)Nc1ccc2nc(NC(=O)c3ccc([N+](=O)[O-])o3)sc2c1 | 3939 | 17.9 | 4.5 | 13.8 | 21.9 | 98.2* | -27.2
COc1ccc(-c2oc3ncnc(NCCN4CCOCC4)c3c2-c2ccc(OC)cc2)cc1 | 3804 | 2.7 | -11.3 | 1.4 | 6.8 | -3.6 | -1.1

2 entries from above, as tab-separated lines:
SMILES	Bead autofluor	Sa RN4220 lethal	BJeLR viability	Mtb hypoxia rep	Mtb hypoxia rep growth	Sa ugtP lethal	PrP 5UTR inh
O=C(NC1CCCCC1)C12CC3CC(CC(Cl)(C3)C1)C2	2185	7.0	-0.8	14.6	1.9	-0.1	-6.5
NC(=O)c1nc[nH]c1C(=O)Nc1cccc(NC(=O)c2cccc(C(F)(F)F)c2)c1	3432	3.5	/	1.8	4.5	-5.8	-8.2

No enrichment for hits; overall some 3.9% were active at least once.
